LASV entry inh – inhibitors of Lassa virus binding or cell entry; 1.2% of 300,000 active; Potency, µM (highest dose often 37.9 µM), inactives show at the top dose activity change, negative = inhibition, actives largely listed as inhibitors; Lassa virus pseudotype entry inhibition, cell reporter; control for the full effect not named in the record; active means well fitted inhibition curve with a large enough effect; inconclusive means small, poorly fitted or top-dose-only effect, or effect the other way; inactive means flat fitted curve, though single readings scatter; tested in HEK293 cells; further: on the % scale 0 is the no-effect control and ±100 the full control effect; nearly all actives have a fitted effect of over 50% in size; luciferase read-out
SARS PLP yeast – inhibitors of SARS-CoV papain-like protease in yeast; 0.19% of 330,000 active; Potency, µM (titrated, usually from 32.9 µM), without a hit: at the top dose activity, positive = growth rescue; S. cerevisiae expressing SARS-CoV PLpro, growth rescue; control for the full effect not named in the record; active means well fitted rising curve with a large enough effect; inconclusive means small, poorly fitted or top-dose-only effect; inactive means no such curve, though single readings can be large or run the other way; further: 0% is about no effect; nearly all actives have a fitted effect of over 55% in size; growth read by luminescence after 48 h
StopGo reporter – FMDV 2A StopGo reporter, luciferase signal; human cells with a luciferase reporter of 2A StopGo recoding; control for the full effect not named in the record; Potency, µM (top dose mostly 57.9 µM), inactives show at the highest dose signal change, negative = less light; 1.2% of 410,000 active; active = well fitted falling curve with a large enough effect; inconclusive = small, poorly fitted or top-dose-only effect; inactive = no such curve, though single readings can be large or run the other way; tested in HEK293T cells; further: on the % scale 0 is the no-effect control and ±100 the full control effect; nearly all actives have a fitted effect of over 45% in size; luciferase light after 4 h
Cruzain inh Det – inhibitors of Trypanosoma cruzi cruzain with detergent; 0.43% of 200,000 active; Potency, µM, for the others: max response, negative = inhibition, most hits filed as inhibitors; purified cruzain, Z-FR-AMC fluorescence, 0.01% Triton; P25779; AID 1478;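 further: plate controls were neutral wells for no effect and buffer without enzyme for full effect; nearly all actives have a fitted effect of over 40% in size; top concentration of the series not given in the record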
Target sequence (P25779 123-467 limits assumed): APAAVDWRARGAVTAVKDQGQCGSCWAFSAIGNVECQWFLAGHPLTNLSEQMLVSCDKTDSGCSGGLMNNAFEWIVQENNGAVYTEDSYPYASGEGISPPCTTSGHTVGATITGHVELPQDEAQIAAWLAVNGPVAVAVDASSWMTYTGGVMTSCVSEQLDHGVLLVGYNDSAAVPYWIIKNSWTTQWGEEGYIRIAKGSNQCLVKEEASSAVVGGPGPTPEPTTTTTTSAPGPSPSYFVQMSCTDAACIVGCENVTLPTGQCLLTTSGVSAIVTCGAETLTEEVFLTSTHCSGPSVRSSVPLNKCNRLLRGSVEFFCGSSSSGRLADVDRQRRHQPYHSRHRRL
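Cysteine protease activity tested under reducing, mildly acidic conditions (100 mM sodium acetate pH 5.5, 5 mM DTT) plus 0.01% Triton X-100. Cruzain 1.5 nM; substrate Z-FR-AMC 2 uM; 15 min compound preincubation at room temperature.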
Marburg entry inh – inhibitors of Marburg virus binding or cell entry; Potency, µM (titrated, usually from 37.8 µM), for the others: at the highest dose activity change, negative = inhibition, hits mostly inhibitors; 1.8% of 300,000 active; Marburg virus pseudotyped entry inhibition, cell reporter; control for the full effect not named in the record; about a third of the inactives were read at about 46 µM; active = well fitted inhibition curve with a large enough effect; inconclusive = small, poorly fitted or top-dose-only effect, or effect the other way; inactive = flat fitted curve, though single readings scatter; tested in HEK293 cells; about a fifth of its hits are not listed in these tables; further: on the % scale 0 is the no-effect control and ±100 the full control effect; luciferase read-out
NS1 inh – influenza NS1 inhibition | Potency, µM (series often up to 46.1 µM), inactives show top-dose activity, positive = more growth | AID 2326 | 0.4% of 270,000 active | S. cerevisiae slowed by influenza A NS1, growth recovery by OD600; active means well fitted rising curve with a large enough effect; inconclusive means small, poorly fitted or top-dose-only effect; inactive means no such curve, though single readings can be large or run the other way; further: nearly all actives have a fitted effect of over 50% in size
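Growth recovery, yeast-based: influenza A NS1 expressed in S. cerevisiae causes slow growth, and suppressors are detected by OD600. The parent strain without NS1 is used as positive control.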
Cruzain inh noDet – inhibitors of Trypanosoma cruzi cruzain without detergent. P25779. purified cruzain, Z-FR-AMC fluorescence, no detergent. Potency, µM, without a hit: max response, negative = inhibition, usual class: inhibitors. 2.3% of 200,000 active. AID 1476;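 further: plate controls were enzyme without inhibitor for no effect and buffer without enzyme for full effect; nearly all actives have a fitted effect of over 40% in size; top concentration of the series not given in the record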
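Detergent-free condition (0.00005% Triton X-100) in acetate buffer pH 5.5 with DTT. 1.5 nM enzyme and compound were pre-mixed 15 min, then 2 uM Z-FR-AMC substrate added; reaction progress from fluorescence change between first and third reads (60 s).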
RE007 growth inh – less growth of the S. pombe RE007 Vpr strain; S. pombe RE007 Vpr strain, BacTiter-Glo ATP luminescence, 24 h; control for the full effect not named in the record; Potency, µM (titrated, usually from 92.2 µM), without a hit: top-dose activity change, negative = less growth; 0.21% of 360,000 active; AID 651644; active = well fitted falling curve with a large enough effect; inconclusive = small, poorly fitted or top-dose-only effect; inactive = no such curve, though single readings can be large or run the other way;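 further: on the % scale 0 is the no-effect control and ±100 the full control effect; nearly all actives have a fitted effect of over 50% in size; the assay follows cell death caused by Vpr and the record does not say whether a fall means rescue or toxicity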
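Fission yeast strain RE007, carrying one chromosomally integrated HIV-1 vpr copy, was seeded at OD 0.01 in PMG+AL medium with 23 nL pinned compound. After 24 h at 30 °C and 99% humidity, viability was read by BacTiter-Glo luminescence.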
* marks the source's active call; other numbers are inactive results; ? = inconclusive; nt = no result given; & = joins results of further samples; [ ] = another dose, or the depositor's remark. Unless noted, the call rests on the fitted dose curve; in most records, active means well fitted curve in the direction sought with a large enough effect; inconclusive means small, poorly fitted or top-dose-only effect, or another doubt; inactive means no such curve, though single readings can be large; an effect the other way counts as inactive or inconclusive. Potency means the concentration at half of the fitted maximal effect. Rows are unselected. About 4.8% of those tested had a hit in this group.

SMILES	LASV entry inh	SARS PLP yeast	StopGo reporter	Cruzain inh Det	Marburg entry inh	NS1 inh	Cruzain inh noDet	RE007 growth inh
CCc1nc(SCC(=O)N2CCN(c3ccccc3)CC2)c2oc3ccccc3c2n1	-20.0%	4.6%	?	-12.3%	?	?	4.1%	-8.6%
CCOC(=O)C1CCCN(CCC(=O)Nc2ccc(OC)cc2OC)C1 (stereo not given)	9.9%[46.1 µM]	nt	-6.9%	1.4%	nt	nt	-5.7%	nt
CNc1ccc(Br)cc(C(=O)/C=C/c2cccc(Cl)c2Cl)c1=O	nt	0.2%	20µM*	nt	nt	-0.3%	nt	-7.8%
c1ccc(-n2ncc3c(NCc4ccc5c(c4)OCO5)ncnc32)cc1	18.0%[14.3 µM]	3.6%	76.8%[activator]	-8.9%	?	-4.3%	-3.8%	1.0%
CCc1ccc(NCc2cc3ccc(OC)cc3n(CC(=O)Nc3ccccc3C)c2=O)cc1	-5.5%[46.1 µM]	nt	0.2%	-3.2%	nt	nt	12.3%	nt
COc1ccc(-c2cc(-c3ccccc3)nc(SCC(=O)Nc3ccccc3C)c2C#N)cc1	0.8%[46.1 µM]	nt	-4.4%	-1.1%	-0.7%[46.1 µM]	nt	-5.7%	nt
CN(Cc1ccccc1)S(=O)(=O)c1ccc(OCC(=O)NCc2cccnc2)cc1	?	-1.5%	-14.2%	nt	?	8.5%	nt	0.2%
CC1CC(C)CN(S(=O)(=O)c2cccc3nsnc23)C1 (stereo not given)	nt	-1.3%	-16.9%	nt	nt	7.8%	nt	4.6%
CCCNC(=O)COc1coc(CN2CCN(Cc3ccccc3)CC2)cc1=O	nt	21.7%	-15.8%	nt	nt	9.9%	nt	-10.9%
CCn1nc(C)c(CCN(C)C(=O)Nc2ccc(C)c(Cl)c2)c1C	?	nt	-1.6%	-0.6%	nt	nt	3.0%	nt
Cc1ccc(/C=N/NC(=O)c2cc3ccccc3cc2O)o1	24.8%	-8.2%	40.9%[activator]	nt	?	-22.8%	nt	-12.8%
Cc1cc(C(=O)Nc2cccc(NC(=O)c3ccco3)c2)ccc1[N+](=O)[O-]	-27.4%[46.1 µM]	-1.5%	2.0%	nt	11.9%[46.1 µM]	4.8%	nt	-0.1%
CC(C)[C@H](NC(=O)c1c(F)cccc1F)C(=O)N1CCN(c2ccc(F)cc2)CC1	-20.1%[46.1 µM]	-0.6%	-3.4%	nt	0.3%[46.1 µM]	27.1%	nt	2.3%
CCCOn1c(-n2nc(C)cc2C)nc2ccccc2c1=O	-3.1%	-4.6%	-13.5%	6.8%	3.5%	-0.8%	10.0%	15.7%
Cc1onc(-c2ccccc2Cl)c1C(=O)NCc1ccc(S(N)(=O)=O)cc1	-1.9%	0.8%	-14.4%	0.9%	16.8%[46.1 µM]	2.2%	4.5%	-0.6%

Gathered by group, those above with a Cl atom
SMILES	LASV entry inh	SARS PLP yeast	StopGo reporter	Cruzain inh Det	Marburg entry inh	NS1 inh	Cruzain inh noDet	RE007 growth inh
CNc1ccc(Br)cc(C(=O)/C=C/c2cccc(Cl)c2Cl)c1=O	nt	0.2%	20µM*	nt	nt	-0.3%	nt	-7.8%
CCn1nc(C)c(CCN(C)C(=O)Nc2ccc(C)c(Cl)c2)c1C	?	nt	-1.6%	-0.6%	nt	nt	3.0%	nt
Cc1onc(-c2ccccc2Cl)c1C(=O)NCc1ccc(S(N)(=O)=O)cc1	-1.9%	0.8%	-14.4%	0.9%	16.8%[46.1 µM]	2.2%	4.5%	-0.6%

Next section.
SMILES	LASV entry inh	SARS PLP yeast	StopGo reporter	Cruzain inh Det	Marburg entry inh	NS1 inh	Cruzain inh noDet	RE007 growth inh
Cc1cc(C)nc(-n2nc(C)cc2NC(=O)CN2CCCC(C)C2)n1 (stereo not given)	-0.3%	2.5%	nt	2.5%	-18.7%	0.7%	-0.5%	-11.2%
COc1cc(C(=O)O)cc(OC)c1OCc1cc(C(=O)O)oc1C	15.3%	0.4%	-24.3%	2.9%	-2.3%	4.4%	-3.7%	-2.3%
CCOC(=O)c1cccc(NC(=O)c2cncc(Br)c2)c1	-13.0%	1.7%	20.0%	-4.5%	6.1%	1.6%	-3.5%	4.4%
COc1cc2c(cc1OC)C(C(=O)NCCC(C)C)C1CCCCN1C2=O (stereo not given)	3.7%	-9.5%	1.5%	-0.3%	20.7%	-13.0%	-1.2%	-11.6%
Cc1ccc(C(=O)Nc2cccc(C(=O)O)c2)cc1	5.8µM*	-5.9%	2µM*	4.3%	?	-0.3%	1.9%	-18.0%
CCCCc1c(C)nc2ccc(C)cc2c1SCCC(=O)O	3.7%[46.1 µM]	-0.6%	7.8%	nt	6.6%[46.1 µM]	-7.0%	nt	0.7%
Cc1cccc(C(=O)Nc2cccc(C(=O)OCc3cc(=O)n4nc(C5CC5)sc4n3)c2)c1	?	nt	-15.1%	-0.6%	nt	nt	-6.0%	nt
Cc1[nH]c2ccc(OCc3ccccc3)cc2c1CCN	nt	-10.0%	-2.2%	nt	nt	12.1%	nt	16.6%
O=C(COC(=O)c1ccccc1NC(=O)c1ccco1)Nc1ccc2c(c1)OCO2	14.5%	11.0%	0.0%	-5.5%	?	2.3%	-20.2%	-6.1%
CC1Oc2ccccc2N(Cc2cccnc2)C1=O (stereo not given)	-28.8%[14.3 µM]	1.9%	6.8%	0.8%	-1.6%	-0.9%	-5.7%	-1.2%
O=Cc1ccc(-c2cccs2)s1	10µM*	nt	26.0%	nt	?	nt	nt	11.4%
CCOc1ccc2nc(SCC)[nH]c2c1	-3.9%	-1.5%	49.3%[activator]	1.7%	-4.4%	-83.9%	5.0%	-6.9%
COc1cccc(/C=N/Nc2ncnc3c2ncn3Cc2ccccc2)c1O	7.31µM*	?	-21.4%	-4.6%	?	?	-6.4%	nt
Cc1cc(C)n(-c2nc3ccccc3nc2NCCc2ccccc2)n1	nt	-10.3%	-22.1%	-3.2%	nt	-3.1%	4.1%	5.3%
O=C(CSc1nc2sc3c(c2c(=O)n1-c1ccccc1)CCCC3)NCc1ccco1	0.2%	4.9%	0.0%	-0.5%	14.4%	2.5%	?	5.6%
COCC(=O)N(Cc1nc2sc(C)c(C)c2c(=O)[nH]1)C1CCCCC1	11.6%[46.1 µM]	0.6%	0.0%	nt	?	2.3%	nt	6.0%
COc1ccc(NC(=O)CCc2c(C)nn(-c3ccc(N4CCOCC4)nn3)c2C)cc1	nt	24.5%	7.9%	nt	nt	3.1%	nt	10.6%
CC(=O)N1CN(C2CCCC2)Cc2c1sc1c2CCCC1	-0.4%	0.4%	56.8%[activator]	-7.3%	-22.4%	-3.6%	5.1%	0.5%
Cc1ccc(NC2=NC(c3ccco3)n3c(nc(C)cc3=O)N2)c(C)c1 (stereo not given)	nt	15.0%	nt	1.6%	4.4%	-0.3%	7.6%	nt
CCOC(=O)N1CCN(Cc2nnc(-c3ccccc3Cl)o2)CC1	nt	0.0%	-0.5%	nt	nt	2.6%	nt	10.1%
COc1ccc(C)cc1NC(=O)COC(=O)C1CC1	9.5%	1.5%	10.1%	4.0%	5.7%	-1.0%	-7.5%	-15.2%
O=C(CCn1c(=O)oc2ccccc21)N1CCN(c2ccc(F)cc2)CC1	nt	-2.4%	-16.3%	-6.3%	nt	-40.8%	5.7%	15.0%
O=C(NCCO)c1ccc(Cl)c(Cl)c1	4.4%	-2.2%	-7.7%	3.0%	16.7%	-4.1%	-2.8%	-6.2%
CCCn1c(=O)[nH]c(=O)c2c1nc(-c1ccc(C(F)(F)F)cc1)n2CCOC	nt	-6.6%	?	nt	3.8%[46.1 µM]	18.6%	nt	20.7%
CC1CCN(c2nc3ccc(C(=O)O)cc3s2)CC1	0.631µM*	-16.2%	?	2.1%	?	-189.2%	-2.6%	-11.4%
CCCOC(=O)C1C2C=CC(C3CC23)C1C(=O)OCC(=O)c1ccccc1 (stereo not given)	?	0.6%	?	2.0%	?	-9.4%	-8.0%	-3.3%
Cc1nc2ccccc2n1CC(=O)N/N=C/c1cccs1	4.3%	6.4%	-26.4%	-3.3%	-0.2%	2.6%	-7.5%	-2.5%
COc1ccc(-c2nn3c(=O)cc(CN4CCN(C(=O)/C=C/c5ccccc5)CC4)nc3s2)cc1	25.4%[46.1 µM]	nt	-16.9%	-0.1%	nt	nt	-3.7%	nt
Cc1ccc(CN2CC(C(=O)N3CCN(S(=O)(=O)c4ccc(C)cc4C)CC3)CC2=O)cc1 (stereo not given)	?	1.9%	-28.7%	nt	?	nt	nt	0.0%
COc1cc(/C=N/NC(=O)Cn2c([N+](=O)[O-])cnc2C)ccc1OC(=O)N(C)C	1.8%	1.6%	nt	-4.1%	1.7%	10.4%	-5.5%	-15.0%
Cc1ccc(OS(=O)(=O)c2ccccc2)c(/C=N/N=C2\NC(=O)C(C)S2)c1 (stereo not given)	?	-11.7%	35.1%[activator]	-12.2%	10.8%	-2.6%	-14.3%	0.3%
CC(=O)c1cccc(NC(=S)N2CCN(S(=O)(=O)c3ccc(F)cc3)CC2)c1	-7.6%	0.6%	1.0%	nt	-23.2%[46.1 µM]	21.3%	nt	-3.3%
CSCCC(NS(=O)(=O)c1ccc(Cl)cc1)C(=O)OCC(=O)NC1CC1 (stereo not given)	6.4%	5.3%	-1.5%	0.2%	0.3%&-1.4%	2.5%	-9.4%	2.0%
O=C1NC(=S)N(c2ccc(F)cc2)C(=O)/C1=C\c1ccoc1	nt	0.5%	-7.9%	nt	-10.5%[46.1 µM]	nt	nt	-4.8%
NC(=O)NCc1cccc(Cl)c1	0.6%	-1.2%	nt	2.3%	?	5.2%	1.2%	-18.0%
C=CCc1cc(/C=C2/NC(=O)NC2=O)cc(OCC)c1O	?	1.1%	-2.5%	nt	-5.8%[46.1 µM]	nt	nt	-23.2%
COc1ccc(C(=O)Nc2cc(NC(=O)c3ccco3)ccc2OC)cc1Cl	10.7%[46.1 µM]	nt	-12.8%	0.2%	-11.0%[46.1 µM]	nt	4.7%	nt
